WNV protease inh = inhibitors of WNV NS2B-NS3 protease, primary screen, biochemical, fluorogenic substrate. AID 577, 2007. z-score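 (tested at a level between 10 and 100 µM)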. Genome polyprotein (West Nile virus), P06935. 65,000 tested, 0.18% active. fluorogenic substrate Ex360/Em465; hits give low values;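 active = z-score at -3 or under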;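 note: score is relative to mean and spread of the compound wells of a plate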
Target sequence (P06935 1371-1501 limits assumed): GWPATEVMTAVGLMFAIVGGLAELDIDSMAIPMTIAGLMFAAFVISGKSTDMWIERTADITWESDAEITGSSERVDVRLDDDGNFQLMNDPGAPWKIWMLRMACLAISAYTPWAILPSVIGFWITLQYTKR
Target sequence (P06935 1502-1679 limits assumed): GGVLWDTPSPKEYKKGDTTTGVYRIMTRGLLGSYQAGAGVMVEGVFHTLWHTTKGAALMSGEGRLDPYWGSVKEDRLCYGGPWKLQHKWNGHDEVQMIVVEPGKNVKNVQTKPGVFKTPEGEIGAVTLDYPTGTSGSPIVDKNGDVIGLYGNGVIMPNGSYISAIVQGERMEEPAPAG
Hsc70 ATP site = Hsc70 inhibitors, probe displacement, primary screen, biochemical, fluorescence polarization (AID 568); Hsc70 fluorescence polarization, probe displacement; higher % means a stronger effect; strong numbers were not always called active; displacement, % at 20 µM, or IC50 in µM where a hit was titrated; 83,000 tested, under 10 active;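 active = displacement above 50% without optical interference and an IC50 on retest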;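 note: ATPase domain with a fluorescein-tagged ATP probe; 0% = vehicle and 100% = excess ADP; read after one hour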
MT1-MMP reporter = inhibitors of MT1-MMP promoter transcription, cell-based, luciferase reporter, luminescence (AID 618). MT1-MMP promoter luciferase reporter cells, luminescence. calls from a first round at 10 µM; hits with a dose series show EC50 in µM. 87,000 tested, 0.62% active;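 active = over half of the reporter light lost at 10 µM or EC50 under 50 µM; inactive = the rest and hits that failed the dose series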;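 note: actives suppress MT1-MMP promoter-driven transcription so potencies describe inhibitors; HT1080 fibrosarcoma cells; overnight exposure; toxic or luciferase-blocking compounds were not removed from the actives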
The depositor's hits bear a star; i = inactive; / = not tested or not shown; + = active, no number.

Every second line gives: WNV protease inh	Hsc70 ATP site	MT1-MMP reporter
#1 CNC(=S)N1N=C(c2ccc(C)cc2)CC1c1ccc(Cl)cc1 (stereo unspecified)
    /	2.6%	i
#2 COC(=O)Cn1c(=O)c2c(nc(Br)n2CC(=O)OC)n(C)c1=O
    -0.06	5.2%	i
#3 CCOC(=O)N1CCC(NC(=O)c2cccc3c2C(=O)N(c2ccc(OC)cc2)C3)CC1
    -0.41	3.5%	i
#4 CCOC(=O)CSc1nnc(-c2cccnc2)n1Cc1ccccc1
    -0.53	1.8%	i
#5 Cc1ccc(Oc2ccc(N)cc2)cc1
    -1.16	2.8%	i
#6 COC(=O)c1ccc(Cl)c(NC(=O)CN2CCC(C)CC2)c1
    /	-5.3%	i
#7 CCSCc1nnc(SCC(=O)c2ccc(OC)cc2)n1C
    1.49	-4.8%	i
#8 COc1cccc(N=Cc2c(O)n(-c3cccc(C)n3)c(=O)c3ccccc23)c1
    /	0.6%	i
#9 CCC(C)NC(=O)CSC1=Nc2ccccc2C2=NC(CC(=O)NCc3ccc(F)cc3)C(=O)N12 (stereo unspecified)
    0.23	0.3%	i
#10 N#Cc1nc(N2CCCCC2)nc(N2CCOCC2)n1
    0.4	3.0%	i
#11 CCN(C(=O)Cc1cccs1)c1nnc(-c2cccnc2)s1
    1.26	1.2%	i
#12 O=C(c1ccco1)N1CCN(c2nnc(-c3ccccc3)c3ccccc23)CC1
    /	-3.1%	i
#13 CC(CCN(C)C)OC(=O)c1ccc(C(C)c2ccccc2)o1 (stereo unspecified)
    -0.24	0.0%	i
#14 COc1ccc(CCNC(=O)c2[nH]c(C)c(C(C)=O)c2C)cc1OC
    -0.78	-3.0%	i
#15 O=C1c2oc3ccccc3c(=O)c2C(c2ccc(Br)cc2)N1c1ncccn1 (stereo unspecified)
    -0.9	-9.9%	i
#16 COc1cccc(C2=CC(c3cccs3)n3nnnc3N2)c1 (stereo unspecified)
    /	5.1%	i
#17 CC(C)C1(C)C(=O)N=C2c3ccccc3C(=O)N21 (stereo unspecified)
    -2.08	3.1%	i
#18 CCOC(=O)c1sc(NC(=O)CSc2nnc(-c3ccc(OC)cc3)n2CCOC)nc1C
    -0.62	-2.6%	i
#19 CCCCOCCCNS(=O)(=O)Cc1ccccc1
    0.23	-0.6%	i
#20 COCCN(C(=O)COc1ccc(Cl)cc1)c1nnc(-c2cccnc2)s1
    /	3.4%	i
#21 CC1CCc2c(sc3nc4n(c(=O)c23)CCS4)C1 (stereo unspecified)
    /	-2.7%	i
#22 COc1ccccc1OCc1nc(C#N)c(N2CC(C)CC(C)C2)o1 (stereo unspecified)
    1.84	8.0%	i
#23 CCCCC(=O)Nc1ccc(NC(=O)C2CC2)nc1
    -0.28	-5.6%	i
#24 Cc1cc(C)n(Cc2ccc(F)cc2)c(=O)c1C#N
    0.13	-6.6%	i
#25 CCC(=O)Nc1cc2nn(-c3ccccc3)nc2cc1Cl
    0.44	0.9%	+
#26 CC(=O)Nc1nc2ccc(-c3nc4ccccc4o3)cc2s1
    2.4	1.9%	i
#27 Cc1c(NC(=O)C2C3C=CC(C3)C2C(=O)O)c(=O)n(-c2ccccc2)n1C (stereo unspecified)
    /	0.9%	i
#28 O=S(=O)(c1cccs1)N1CCN(Cc2ccccc2)CC1
    -0.61	-0.6%	i
#29 O=c1oc(-c2ccc(F)cc2)nc2ccsc12
    /	-3.1%	i
#30 O=C(CN1CCN(c2ccccn2)CC1)N(c1ccccc1)c1ccc2ccccc2c1
    1.38	-4.6%	i
#31 CC1(C)Cc2c(C#N)c(N3CCOCC3)nc(-c3ccccc3)c2CO1
    -0.01	4.7%	i
#32 COc1ccc(C2CC(c3ccc(Cl)cc3)Nc3nc(NC(=O)c4ccco4)nn32)cc1 (stereo unspecified)
    -0.13	-0.7%	i
#33 CCc1nc2n[nH]c(N)c2c2c1CCCC2
    1.17	-2.7%	i
#34 O=CN1CCN(C(=O)c2ccccc2F)CC1
    -0.74	1.4%	i
#35 O=C(NC12CC3CC(CC(C3)C1)C2)c1cnccn1
    -1.12	9.4%	i
#36 Cc1ccc(OCCCCn2cnc3ccccc32)c(C)c1
    /	0.7%	i
#37 O=C(Nc1c2c(nn1-c1ccc(F)cc1)CSC2)c1ccc(S(=O)(=O)N2CCOCC2)cc1
    -0.49	-1.3%	i
#38 O=C(NCc1cccnc1)c1cnn2ccccc12
    -0.7	8.9%	i
#39 Cc1noc(-c2ccccc2OC(=O)c2ccccc2)n1
    1.58	-7.0%	i
#40 CCC(=O)c1ccc(N2CCCCCC2)c(F)c1
    -0.71	1.8%	i
#41 Cc1nn(C)c(C)c1S(=O)(=O)N(CC(=O)Nc1ccccn1)c1ccc(C(C)C)cc1
    0.94	3.8%	i
#42 c1ccc(-n2ncc3c(NCc4ccc5c(c4)OCO5)ncnc32)cc1
    -0.3	-4.9%	i
#43 COc1ccc(-c2nc(-c3cccc(C)c3)no2)cc1OC
    -0.52	-1.0%	i
#44 O=C(COC(=O)c1ccccc1NC(=O)c1ccco1)Nc1ccc2c(c1)OCO2
    -0.23	2.4%	i
#45 CC1Oc2ccccc2N(Cc2cccnc2)C1=O (stereo unspecified)
    -1.19	-2.7%	i
#46 Cc1ccc(C(=O)Nc2cccc(C(=O)O)c2)cc1
    /	1.5%	0.66µM*
#47 c1ccc(OCCSc2ncnc3nc[nH]c23)cc1
    -0.42	1.7%	i
#48 COc1cc(C(=O)O)cc(OC)c1OCc1cc(C(=O)O)oc1C
    -1.72	3.1%	i
#49 Cc1cc(C)nc(-n2nc(C)cc2NC(=O)CN2CCCC(C)C2)n1 (stereo unspecified)
    0.46	-3.4%	i
#50 CCCOn1c(-n2nc(C)cc2C)nc2ccccc2c1=O
    /	-1.4%	i
#51 Cc1onc(-c2ccccc2Cl)c1C(=O)NCc1ccc(S(N)(=O)=O)cc1
    -0.48	1.2%	i
#52 CC1CCN(c2nc3ccc(C(=O)O)cc3s2)CC1
    -1.7	-1.3%	0.35µM*
#53 O=C(CCn1c(=O)oc2ccccc21)N1CCN(c2ccc(F)cc2)CC1
    -1.28	5.8%	i
#54 O=C(NCCO)c1ccc(Cl)c(Cl)c1
    -0.83	4.6%	i
#55 CC(=O)N1CN(C2CCCC2)Cc2c1sc1c2CCCC1
    1.04	0.2%	i
#56 Cc1ccc(NC2=NC(c3ccco3)n3c(nc(C)cc3=O)N2)c(C)c1 (stereo unspecified)
    -0.96	0.3%	i
#57 CCOc1ccc2nc(SCC)[nH]c2c1
    /	-6.1%	i
#58 O=C(CSc1nc2sc3c(c2c(=O)n1-c1ccccc1)CCCC3)NCc1ccco1
    -0.91	-1.0%	i
#59 CCOC(=O)c1ccc(Nc2ncnc3c2cnn3C)cc1
    -0.94	2.1%	i
#60 COc1ccc(CCCc2nnc(SCC(=O)Nc3nc(C)cs3)n2C)cc1C
    0.2	2.2%	i

(more compounds)
Every second line gives: WNV protease inh	Hsc70 ATP site	MT1-MMP reporter
#61 Cc1ccc(OS(=O)(=O)c2ccccc2)c(/C=N/N=C2\NC(=O)C(C)S2)c1 (stereo unspecified)
    /	-0.4%	i
#62 CSCCC(NS(=O)(=O)c1ccc(Cl)cc1)C(=O)OCC(=O)NC1CC1 (stereo unspecified)
    /	3.6%	i
#63 Cc1cc(C(=O)N(C)Cc2ccc(Br)cc2)no1
    -2.03	-0.4%	i
#64 CCN(CC)C(=O)COc1ccc(S(=O)(=O)N2CCOCC2)cc1
    /	-0.3%	i
#65 COc1ccc(Cl)c(Cn2c(NCc3ccccn3)nc3c2c(=O)n(C)c(=O)n3C)c1
    0.41	1.9%	i
#66 COCCn1c(SCC(=O)NCc2ccco2)nnc1C(C)C
    /	2.7%	i
#67 COCCCNc1oc(-c2ccccc2OC)nc1C#N
    -0.13	2.0%	i
#68 O=C(COc1cccc(NC(=O)c2ccco2)c1)c1ccc(F)cc1
    1.4	4.1%	i
#69 COc1nc(C)nc2c1ccc1ccccc12
    /	-1.8%	i
#70 NS(=O)(=O)c1cc2c(cc1Cl)NC(C1C[C@H]3C=C[C@@H]1C3)NS2(=O)=O (stereo partly specified)
    0.27	-2.8%	i
#71 Cc1nc(SCc2nc3ccccc3[nH]2)c2oc3ccccc3c2n1
    -0.72	-5.8%	i
#72 O=C(O)C1CC(=O)N(c2ccc(OCc3ccc(Cl)cc3Cl)cc2)C1 (stereo unspecified)
    /	1.6%	i
#73 Cc1ccc(C)n1NC(=O)c1ccc(Cl)cc1
    /	-0.3%	i
#74 CCOC(=O)c1c(NC(=O)CC)sc(C(C)=O)c1C
    -2.02	0.0%	i
#75 CCOC(=O)C1=NN(c2ccc(Cl)cc2)C(c2ccccc2)CC1=O (stereo unspecified)
    /	-5.0%	i
#76 CCCN(CCC)C(=O)C1CCN(c2cc(C)nc3c(-c4ccc(OC)c(OC)c4)c(C)nn23)CC1
    -0.03	-6.6%	i
#77 CCN1CCN(C(=O)Nc2ccccc2OC)CC1
    /	-3.0%	i
#78 CCOC(=O)c1sc(C(=O)OCC)c(OCCO)c1OCCO
    1.78	0.1%	i
#79 O=C(C1Cc2ccccc2CN1S(=O)(=O)c1ccc(F)cc1)N1CCCCC1 (stereo unspecified)
    -0.89	-7.8%	i
#80 CC(C)(C)SCCNC(=O)COc1ccc(Cl)cc1
    -0.66	-0.8%	i
#81 CC(=O)c1ccc(C(=O)Nc2ccc(N3CCOCC3)cc2)cc1
    -0.08	-5.6%	i
#82 COc1ccc(-c2nnc3ccc(SCC(=O)N4CCCCC4)nn23)cc1OC
    0.17	5.0%	i
#83 C=CCn1c(SCC(=O)NCCOC)nc2scc(-c3ccco3)c2c1=O
    1.45	2.8%	i
#84 O=C1N=C(N2CCCCC2)SC1=C1CCCCC1
    /	6.5%	i
#85 CCc1ccccc1NS(=O)(=O)c1ccc2[nH]cc(C(=O)NCc3ccco3)c(=O)c2c1
    -1.99	-10.3%	i
#86 O=C(CSc1n[nH]c(-c2cccs2)n1)N1CCN(S(=O)(=O)c2ccc3ccccc3c2)CC1
    /	3.4%	i
#87 O=C(c1cccc(Cl)c1)N1CCN(c2ccccn2)CC1
    0.37	5.6%	i
#88 CCC(Sc1nc2c(cnn2-c2ccccc2)c(=O)[nH]1)C(=O)OC (stereo unspecified)
    -1.06	-2.2%	i
#89 O=C(COC(=O)c1ccccc1Nc1ccccc1)NCc1ccco1
    0.96	-1.9%	i
#90 COc1ccc(C(=O)Nc2ccccc2N2CCOCC2)cc1Br
    -0.91	-6.4%	i
#91 O=C(CN1CCN(S(=O)(=O)c2ccc(Br)cc2)CC1)Nc1ccc2c(c1)OCO2
    -0.79	6.1%	i
#92 CCC(C)Nc1nc(-c2cccc(OC)c2O)nc2ccccc12 (stereo unspecified)
    0.04	-2.3%	i
#93 Cc1ccc(-c2csc(/C(C#N)=C(\O)CN3CCN(C(=O)c4ccco4)CC3)n2)cc1
    1.81	-10.5%	i
#94 CN(C)c1nc(N(C)C)nc(N2CCCCC2)n1
    /	-1.1%	i
#95 Cc1cccc(-c2nc(CN3CCCC(C(=O)NC4CCCCCC4)C3)c(C)o2)c1 (stereo unspecified)
    -0.15	-3.6%	i
#96 COc1ccc(/C(C)=C2/SC(=S)N(CCC(=O)O)C2=O)cc1
    /	1.1%	i
#97 CC(C)[C@H](N)c1nnc(SCc2ccc(Cl)cc2)o1
    -1.26	-5.6%	i
#98 Cc1cc(C)n(CC(=O)c2ccccc2)c(=O)c1C#N
    -0.77	0.6%	i
#99 Cc1oc(-c2ccccc2F)nc1CN1CCC(C(=O)NC2CC2)CC1
    0.3	-3.0%	i
#100 CCOC(=O)c1ccc(NC(=O)CSc2nnnn2CCCO)cc1
    -0.99	12.2%	i
#101 CC1CCCN(C(=O)CCCn2c(=S)[nH]c3ccccc3c2=O)C1 (stereo unspecified)
    /	-2.7%	i
#102 O=C1C2C3C=CC(C3=C3CCCCC3)C2C(=O)N1Cc1ccccc1 (stereo unspecified)
    1.2	0.4%	i
#103 Cc1ccc(NC(=O)CS(=O)CC(=O)N(CC(=O)NC2CCCC2)c2cccc(C)c2C)cc1 (stereo unspecified)
    0.81	2.7%	i
#104 CCOC(=O)N1CCN(C(=O)c2ccc(OCC)c(OCC)c2)CC1
    /	0.7%	i
#105 COc1ccc2[nH]c(=O)c(CN(C(=O)NC3CCCCC3)C3CCCCC3)cc2c1
    0.52	-0.5%	i
#106 Cc1ccsc1C(=O)Nc1nnc(-c2ccco2)o1
    -0.16	3.6%	i
#107 COc1ccccc1C(=O)Nc1ccc2c(c1)nc(CN1CCN(C(C)=O)CC1)n2C
    -0.48	3.9%	i
#108 N#CCCN1CCN(C(=S)c2ccc(-c3ccc(Cl)cc3)o2)CC1
    1.15	-3.7%	i
#109 Nc1nnnn1/N=C/c1ccccc1OCc1ccccc1
    0.29	2.2%	i
#110 CCN1C(=O)/C(=c2\o/c(=C3\C=Cc4ccccc4N3CC)c(=O)n2CC)SC1=S
    -1.75	-6.1%	i

Molecules shown so far that have bromine (five):
Every second line gives: WNV protease inh	Hsc70 ATP site	MT1-MMP reporter
#2 COC(=O)Cn1c(=O)c2c(nc(Br)n2CC(=O)OC)n(C)c1=O
    -0.06	5.2%	i
#15 O=C1c2oc3ccccc3c(=O)c2C(c2ccc(Br)cc2)N1c1ncccn1 (stereo unspecified)
    -0.9	-9.9%	i
#63 Cc1cc(C(=O)N(C)Cc2ccc(Br)cc2)no1
    -2.03	-0.4%	i
#90 COc1ccc(C(=O)Nc2ccccc2N2CCOCC2)cc1Br
    -0.91	-6.4%	i
#91 O=C(CN1CCN(S(=O)(=O)c2ccc(Br)cc2)CC1)Nc1ccc2c(c1)OCO2
    -0.79	6.1%	i

Not all compounds are listed (hit frequency here may not be typical).
